# ClpP mod: qHTS Assay for Activators of ClpP. ATP-dependent Clp protease proteolytic subunit (Bacillus subtilis (strain 168)), P80244. purified B. subtilis ClpP, FRET peptide cleavage, 20 min. Potency, µM (doses to about 57.5 µM), for inactives: at the highest dose activity change, negative = active. hit rate 1.9% among 340,000; active = well fitted falling curve with a large enough effect; inconclusive = small, poorly fitted or top-dose-only effect; inactive = no such curve, though single readings can be large or run the other way; also: potency is read from the fitted curve at half-maximal effect; the source files actives as falling curves though it sought activators and does not explain the sign; nearly all actives have a fitted effect of over 65% in size; many hits overshoot -100%
# Target sequence (P80244 whole entry, looked up): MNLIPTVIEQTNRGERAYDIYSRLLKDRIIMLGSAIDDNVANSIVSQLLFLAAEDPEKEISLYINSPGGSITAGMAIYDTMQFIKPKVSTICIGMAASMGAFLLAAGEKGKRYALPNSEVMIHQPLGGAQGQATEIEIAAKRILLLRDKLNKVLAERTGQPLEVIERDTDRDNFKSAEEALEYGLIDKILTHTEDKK
#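 Buffer: 100 mM Tris/HCl pH8, 100 mM KCl, 0.05% low protease BSA, 2.5% glycerol, 0.01% Tween-20. ClpP 10 microg/mL final; 20 min RT; delta FRET normalized to ADEP and DMSO controls.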
# Sfp PPTase inh: Sfp phosphopantetheinyl transferase inhibition | AID 1490 | Biochemical Sfp PPTase activity, qHTS | Q9F4F7 | hit rate 3.5% among 310,000 | Potency, µM, for the others: max response, negative = inhibition, usual class: inhibitors; active = well fitted inhibition curve with a large enough effect; inconclusive = small, poorly fitted or top-dose-only effect, or another doubt; inactive = no such curve, though single readings can be large or run the other way;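 also: the enzyme is Sfp with the accession as filed and its product quenches rhodamine fluorescence; potency is read from the fitted curve at half-maximal effect; 0% = enzyme reaction without inhibitor and -100% = no enzyme wells; top concentration of the series not given in the record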
#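 Compounds were incubated with enzyme (final 15 nM) for 15 min at room temperature before substrate addition started the reaction. Fluorescence at 525 nm excitation, 598 nm emission was recorded immediately and after 30 minutes.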
# Menin-MLL FL inh: menin-MLL binding inhibition, fluorescein peptide | FP activity change, % at 61.4 µM | Fluorescence polarization, fluorescein-MLL peptide displacement from menin | 290,000 tested, under 10 active; inconclusive = falling polarisation curve, or a change in total fluorescence; inactive = total fluorescence flat and polarisation flat or rising; no compound was filed as active; the % refers to the polarisation; negative = inhibition;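 also: % of control where 0% means no effect; inhibitors lower the polarisation; unlabelled MLL peptide was the positive control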
# TRPV1 PAM: human TRPV1 potentiation. TRPV1-expressing cells, Fluo-8 calcium influx, capsaicin EC20 potentiation; host cell line not named in the record; control for the full effect not named in the record. potentiation, % at 8.33 µM. hit rate 0.02% among 320,000. AID 540277; active means potentiation above 80%; inconclusive means 30% to 80%; inactive means below 30%; also: 0% is about no effect
# Target sequence (Q8NER1 whole entry, looked up): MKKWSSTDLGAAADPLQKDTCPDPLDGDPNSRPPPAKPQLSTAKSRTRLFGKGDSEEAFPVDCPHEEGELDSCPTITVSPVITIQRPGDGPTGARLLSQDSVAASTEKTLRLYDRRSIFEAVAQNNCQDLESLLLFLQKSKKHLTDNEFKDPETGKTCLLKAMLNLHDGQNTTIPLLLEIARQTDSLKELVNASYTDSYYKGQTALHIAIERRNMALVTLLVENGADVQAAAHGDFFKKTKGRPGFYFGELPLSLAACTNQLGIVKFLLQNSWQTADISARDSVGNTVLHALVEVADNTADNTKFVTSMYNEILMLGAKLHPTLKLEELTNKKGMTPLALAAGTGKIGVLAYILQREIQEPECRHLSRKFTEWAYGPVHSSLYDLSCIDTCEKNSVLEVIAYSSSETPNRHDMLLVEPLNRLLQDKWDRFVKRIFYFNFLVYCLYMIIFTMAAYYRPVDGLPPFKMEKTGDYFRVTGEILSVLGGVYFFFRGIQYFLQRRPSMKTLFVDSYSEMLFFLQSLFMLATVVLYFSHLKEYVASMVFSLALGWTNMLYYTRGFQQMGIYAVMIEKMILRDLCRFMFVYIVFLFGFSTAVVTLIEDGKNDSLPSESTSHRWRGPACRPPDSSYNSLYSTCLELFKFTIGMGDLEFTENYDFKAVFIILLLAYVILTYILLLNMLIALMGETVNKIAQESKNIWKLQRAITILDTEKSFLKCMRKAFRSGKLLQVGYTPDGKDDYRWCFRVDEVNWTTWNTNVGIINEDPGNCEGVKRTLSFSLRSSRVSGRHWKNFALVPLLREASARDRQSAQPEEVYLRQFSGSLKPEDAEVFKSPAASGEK
#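 Fluo-8 calcium influx in TRPV1-expressing cells, kinetic read (ex 480/em 520 nm). Compound added and read 3 min for agonist activity, followed by capsaicin at EC20 final and 2 min further read for enhancement.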
# gsp antagonist: gsp mutant antagonism; hit rate 0.4% among 340,000; gsp-mutant cells, cAMP HTRF, 30 min; control for the full effect not named in the record; AID 624288; Potency, µM (titrated, usually from 76.9 µM), inactives show at the top dose activity change, negative = inhibition, usual class: inhibitors; active = falling curve of any shape with a large fitted effect; inconclusive = falling curve, mostly with a smaller effect; inactive = flat or rising curve; cell line not stated here;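 also: intracellular cAMP measured with PDE inhibitor Ro 20-1724 present during compound exposure; potency is read from the fitted curve at half-maximal effect; % is scaled to controls: 0 for no effect and ±100 for the full control effect; nearly all actives have a fitted effect of over 65% in size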
#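 Cells, 2000/well, grown 16–24 h in DMEM 10% FBS with 0.5 mg/ml G418, then compounds plus […] (300 uM addition stock), 30 min at 37C. cAMP read by HTRF (cAMP-d2 and anti-cAMP antibody-K in lysis buffer) after 30 min RT.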
# gsp agonist: activates gsp, the McCune-Albright syndrome mutation. gsp mutant cells, cAMP HTRF, 30 min; control for the full effect not named in the record. Potency, µM (series often up to 76.9 µM), for inactives: at the highest dose activation (cAMP increase), hits mostly activators. hit rate 0.13% among 340,000. AID 624287; active = well fitted activation curve with a large enough effect; inconclusive = small, poorly fitted or top-dose-only effect, or another doubt; inactive = no such curve, though single readings can be large or run the other way; cell line not stated here;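 also: phosphodiesterase inhibitor Ro 20-1724 added with compounds to block cAMP breakdown; potency is read from the fitted curve at half-maximal effect; nearly all actives have a fitted effect of over 60% in size; about a fifth of the inactives were tested at one dose only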
#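 Cells stably selected in G418 were plated at 2000/well, grown 16-24 hr, then given compounds in DMSO with the PDE inhibitor […] (300 uM solution added) for 30 min at 37C; cAMP was read by HTRF.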
# TRPML1 blocker: inhibitors of human TRPML1 channel. hit rate 0.02% among 390,000. AID 624415. activity change, negative = inhibition, % (concentration not given with the values). Q9GZU1. TRPML1-inducible cells, Ca2+ dye fluorescence, FDSS; stronger effect = lower value; inhibition of EC80 agonist-evoked calcium signal; in the data active means activity change below about -50%; inconclusive means about -30% to -50%; inactive means above about -30%;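 also: stimulus is agonist 54-4 at its EC80 concentration; % is scaled to controls: 0 for no effect and ±100 for the full control effect; compound concentration not given in the record; the text of the record puts the active cut at -80%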
#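 Calcium fluorescence in TRPML1-DL cells induced overnight with Tet: a 110 s read after compound pin addition, then a 110 s antagonist read after challenge with 54-4 at 4 uM final (EC80).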
# Active calls of the source: *; ? = inconclusive; . = not tested or not shown; & = joins results of further samples; [ ] = another dose, or the depositor's remark.
SMILES,ClpP mod,Sfp PPTase inh,Menin-MLL FL inh,TRPV1 PAM,gsp antagonist,gsp agonist,TRPML1 blocker
COc1ccc([C@H]2CC(=O)C=C(c3ccc(OC)c(OC)c3)C2)cc1,-0.8%,.,.,2,-15%,-4%,12
COCC(=O)OCC(=O)Nc1cc([N+](=O)[O-])ccc1Cl,0.2%,12%,-0.4,1,1%,-42%[inhibitor],-8
CN(C)S(=O)(=O)c1ccc(N2CCCC2)c(C(=O)N2CCN(S(=O)(=O)c3ccc(F)cc3)CC2)c1,1.4%,.,.,9,-1%,-8%[15.4 µM],4
COc1ccc(-n2ncc3c2CC(C)(C)CC3NC(=O)CCN2CCCCC2=O)cc1 (stereo not given),-3.0%,9%,.,?,6%,?,9
Cc1nnc(NC2=NCCC2)s1,-3.6%,-17%,1.2,-2,-1%,-2%,4
COc1cc(CN2CCCC(C(=O)c3ccc4c5c(cccc35)CC4)C2)cc(OC)c1O (stereo not given),4.4%,-14%,1.5,23,-1%,-49%,9
CCN(CC)CCCC(C)n1c2nc(=O)[nH]c(=O)c-2nc2cc(Cl)ccc21 (stereo not given),-1.7%,.,.,.,11%,?,-23
Cc1ccnc(NC(=O)COc2ccccc2[N+](=O)[O-])c1,.,12%,-3.7,-3,.,.,.
CCOc1ccccc1C1C(C#N)=C(N)Oc2n[nH]c(CC)c21 (stereo not given),1.1%,9%,1.8,7,0%,-20%,3
CCC(=O)c1ccc(O)c(CC=C(C)C)c1,-4.6%,9%,2.4,-1,17%,0%,2
CC(=O)Oc1ccc(/C=C(\NC(=O)c2ccco2)C(=O)NCc2ccco2)cc1,.,10%,.,10,-2%,-2%[15.4 µM],16
O=C(COC(=O)c1ccco1)NCCc1ccc(Cl)cc1,-1.3%,.,.,-20,8%,?,-5
CN1CCN(C(=O)c2ccc3c(c2)N(Cc2ccc(Cl)cc2)C(=O)c2ccccc2S3=O)CC1 (stereo not given),0.4%,-1%,0.9,-5,-1%,5%,-1
CCOC(=O)C1(CCOC)CCN(Cc2nc(-c3cccs3)oc2C)CC1,.,5%,6.0,3,0%,-18%[15.4 µM],-9
CCn1cc(C(C)NC(=O)Nc2ccc3c(c2)OCO3)c(C)n1 (stereo not given),.,17%,0.6,-3,.,9%[15.4 µM],-1
CC(=O)c1ccc(N2CCN(c3ccccc3O)CC2)c([N+](=O)[O-])c1,.,4%,4.1,27,32µM*,16%[15.4 µM],11
COc1cc2c(cc1OC)C(c1cccc(Br)c1)CC(=O)N2 (stereo not given),-0.7%,-5%,0.4,-3,2%,?,11
COc1ccccc1-c1nc2ccccc2nc1-c1ccccc1OC,0.5%,15%,-3.2,-10,-4%,11%,10
O=C(c1ccc(C#CC2(O)CCCCC2)cc1)N1CCN(Cc2ccccc2)CC1,0.6%,18%,5.3,-1,-1%,-17%,4
CC(=O)c1ccc(N2CCN(C(=O)Nc3ccc(C(C)C)cc3)CC2)cc1,-9.2%,8%,0.0,9,.,20%[15.4 µM],-7&-20
CC(=O)c1cc2c(cc1NC(=O)C1CCC1)OCO2,.,-2%,1.5,9,3%,-1%[15.4 µM],53
COc1ccc(NC(=S)NC(=O)c2ccc(Br)o2)cc1,2.0%,?,-2.8,-19,-7%,-27%,4
COc1cccc(Nc2ncc(C#N)c(N)n2)c1,.,0%,4.8,15,5%,-10%,5
O=C(CSc1nc2ccccc2s1)NCc1ccc2c(c1)OCO2,-2.5%,-1%,3.1,-1,13%,34%,-23
Cc1ccsc1C=Nc1ccc(O)cc1,3.4%,?,2.8,-1,0%,-20%,-6
# Other compounds
SMILES,ClpP mod,Sfp PPTase inh,Menin-MLL FL inh,TRPV1 PAM,gsp antagonist,gsp agonist,TRPML1 blocker
O=C(O)CC/C(=N/NC(=O)CNC(=O)Cc1ccc(Cl)cc1)c1ccccc1,-0.7%,10%,3.0,24,10%,10%,-7
COc1ccc(C2=NN(C(=O)c3ccccc3)C(c3ccccc3)C2)c(O)c1 (stereo not given),.,-18%,-0.6,1,-14%,-7%,-5
CN(CCC#N)C(=O)c1cc2c(Cl)nc3ccccc3c2s1,-0.1%,10%,-0.6,11,-19%,-2%[15.4 µM],2
O=C(c1ccoc1)N1CCC2(CC1)Oc1ccc(F)cc1C(=O)C21CC(c2ccc(Cl)cc2)=NO1 (stereo not given),-1.6%,6%,1.1,-13,-21%,.,6
Cc1cnc2c(N)cc(C)c(C)c2c1,1.5%,.,.,.,.,9%,-6
C=CCNC(=O)c1sc(-c2ccccc2)nc1C,.,21%,-0.1,-7,3%,-2%[15.4 µM],-9
CCCNc1nc2ccccc2n2c(C)nnc12,-1.1%,0%,?,11,5%,20%[15.4 µM],-7
Cc1oc2c(c(C)cc3oc(=O)c(CC(=O)N[C@@H](C)C(=O)O)c(C)c32)c1C,-12%,11%,0.1,2,-1%,?,13
O=C(Cn1c(CO)nc2ccccc21)NCCc1ccc(F)cc1,-0.6%,6%,2.9,0,2%,-20%,-10
Cc1cc(NC(=O)CSCc2ccccc2C)no1,1.3%,2%,0.4,-4,5%,-32%[inhibitor],10
Cc1c(NC(=O)c2ccccc2NS(=O)(=O)c2ccc(Br)cc2)c(=O)n(-c2ccccc2)n1C,-3.9%,6%,5.2,13,-18%,3%,-19
O=c1c2ccccc2cnn1-c1nc2ccccc2[nH]1,?,20%,-2.0,-7,-10%,3%,1
Cc1cc(NC(=O)C2CCCN2C(=O)Nc2c(C)cccc2C)ccc1-n1cnnn1 (stereo not given),0.8%,-6%,2.8,18,-10%,3%,-3
O=C1C[C@@H](c2ccc3ccccc3c2)N1S(=O)(=O)c1ccccc1[N+](=O)[O-],.,8%,-2.2,.,.,.,-11
COc1ccc(NC(=O)CN2C(=O)N(C)Cc3ccccc32)c(C)c1,.,2%,1.7,3,10%,-5%[15.4 µM],15
Cc1ccccc1-c1nc(CN2CCC(C(=O)NCCC3=CCCCC3)CC2)c(C)o1,-4.3%,?,8.7,-20,-1%,-5%,8
CCOC(=O)c1cc2c(C)n(-c3ccc(C)cc3)c(C)c2ccc1=O,1.0%,-75%,6.1,-14,?,33%,0
Cc1noc(C)c1NC(=O)N(C)C[C@H]1Oc2c(NC(=O)Nc3ccccc3)cccc2C(=O)N([C@H](C)CO)C[C@@H]1C,-6.0%,.,.,.,6%,-4%,-20
OC(CN1CCN(c2ccccn2)CC1)Cn1c2ccccc2c2ccccc21 (stereo not given),-20%,-14%,-3.0,25,-12%,-6%,3
Cc1ccc(NCc2cccnc2)c(Br)c1,.,-26%,0.3,-1,6%,0%[15.4 µM],12
CCCC1CCC(=C(C#N)C(N)=O)CC1 (stereo not given),-2.8%,-2%,7.3,11,6%,-6%,-3
CCCS(=O)(=O)N1CCN(C(=O)c2ccco2)CC1,1.0%,14%,4.0,-23,7%,-22%,8
Cc1nc2sc(C(c3cccs3)N3CC(C)CC(C)C3)c(O)n2n1 (stereo not given),1.5%,-12%,-1.4,-9,-7%,?,-3
COc1ccc(CC(=O)Nc2cc(S(C)(=O)=O)ccc2Cl)cc1S(=O)(=O)N1CCOCC1,-1.4%,.,.,.,-23%,-14%,37
CSc1ccccc1NC(=O)COC(=O)CCc1ccccc1,.,15%,6.1,6,10%,-7%[15.4 µM],21
# Next results
SMILES,ClpP mod,Sfp PPTase inh,Menin-MLL FL inh,TRPV1 PAM,gsp antagonist,gsp agonist,TRPML1 blocker
CC(=O)NS(=O)(=O)c1ccc(NC(=S)NC(=O)C(C)(C)C)cc1,0.4%,?,-0.1,8,6%,4%,-1
CCn1cc(C(=O)Nc2cccc(NC(C)=O)c2)c2cc(OC)c(OC)cc2c1=O,-0.5%,10%,1.1,-6,6%,9%[15.4 µM],-18
CC1CCCCN1CCNC(=O)CN1C(=O)CSc2ccc(S(=O)(=O)N3CCCCC3)cc21 (stereo not given),-0.9%,14%,.,10,18%,22%,13
O=S(=O)(Cc1ccccc1)NCC1CCCN(Cc2cccc3nonc23)C1 (stereo not given),-1.5%,3%,0.9,-9,5%,0%[15.4 µM],0
O=C(O)/C=C\C(=O)Nc1ccc(OC(F)F)cc1,-9.1%,15%,-2.1,7,3%,-85%[inhibitor],-2
O=C(CSc1nc(-c2ccccc2)cs1)NC(=O)NCc1ccco1,-2.2%,?,4.4,-5,-17%,-29%,2
C/C=C/c1ccc(Oc2nnnn2-c2ccc(C(N)=O)cc2)c(OC)c1,0.5%,-4%,4.4,?,-26%,-20%,-5
OCCC1CN(Cc2cccc(O)c2)CCN1CCc1ccccc1 (stereo not given),-4.9%,12%,-4.3,23,4%,7%,-4
CC(=O)C1=C(O)C(=O)N(CCC(=O)O)C1c1ccc(Cl)cc1Cl (stereo not given),-5.9%,?,-1.9,13,8%,?,-3
COc1ccc(CC(=O)N2CCN(c3cccc(C)c3C)CC2)cc1,-2.7%,-17%,4.1,-3,-7%,27%,2
COc1ccccc1CNC(=O)COC(=O)C1CCN(S(=O)(=O)c2ccccc2)CC1,-4.6%,.,.,-4,-3%,-64%[inhibitor],2
CCOc1ccc(N(CC(=O)Nc2ccccc2OC)S(=O)(=O)c2ccccc2)cc1,1.0%,7%,3.8,?,8%,-55%[inhibitor],20
Cc1cccc(Oc2cc(NC(=O)Cn3cnc([N+](=O)[O-])n3)cc([N+](=O)[O-])c2)c1,1.0%,21%,2.9,-2,-3%,-18%,-4
CCN(CC)CCNC(=O)c1ccc(NC(=O)Cc2cccc3ccccc23)cc1,.,-9%,2.1,2,9%,10%,5
Cc1ccc(S(=O)(=O)N2C[C@H]3[C@H]4C(=O)N(c5ccccc5)C(=O)[C@H]4C[C@H](OC(=O)Nc4cccs4)[C@@]3(O)C2)cc1,1.0%,.,.,.,.,-13%,25

# Only TRPV1 PAM, Menin-MLL FL inh and gsp agonist, for some of the entries so far:
Structure	TRPV1 PAM	Menin-MLL FL inh	gsp agonist
COc1ccc(CC(=O)N2CCN(c3cccc(C)c3C)CC2)cc1	-3	4.1	27%
COc1ccccc1CNC(=O)COC(=O)C1CCN(S(=O)(=O)c2ccccc2)CC1	-4	.	-64%[inhibitor]
CCOc1ccc(N(CC(=O)Nc2ccccc2OC)S(=O)(=O)c2ccccc2)cc1	?	3.8	-55%[inhibitor]

# Source: PubChem
